Screening data from PubChem BioAssay.
Arbovirus anti: arbovirus infection inhibition. arbovirus infection cell-based antiviral screen. inhibition, % at 10 µM. hit rate 0.37% among 200,000. AID 1251;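 active means inhibition from about 30%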;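 further: bluetongue infection of BSR cells; cell survival read as ATP light after 72 h; 0% = infected wells without compound and 100% = uninfected wells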
Mtb growth: M. tuberculosis H37Rv growth inhibitors, H37Rv strain (AID 1626). M. tuberculosis H37Rv growth inhibition; higher % means a stronger effect. inhibition, % at 10 µM, or IC50 in µM where a hit was titrated. hit rate 0.95% among 220,000;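 active means confirmed in a dose series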;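 further: bacteria incubated seven days before Alamar blue readout; 0% = bacteria only wells and 100% = bacteria with antibiotic wells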
Mtb betalactam: beta-lactam sensitization of Mtb H37Rv; inhibition, % at 25 µM; M. tuberculosis H37Rv growth with meropenem, percent inhibition; hits of this screen are not shown here; hit rate 0.27% among 330,000;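 active means about 74% or more and at least 40 points above the plate without the antibiotic, then above 30% in a dose series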;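 further: growth measured after seven days incubation then overnight dye step; 0% = bacteria only wells and 100% = bacteria with antibiotic; twin plates without the antibiotic show which effects depend on it; some results filed as inactive read as strong as hits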
RecA intein inh: blocks M. tuberculosis RecA intein splicing. P9WHJ3. cell-free RecA intein splicing, fluorescence. inhibition, %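 (about 9 µM by stock and volumes)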. hit rate 0.75% among 290,000; in the data active means inhibition above about 30%;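 further: 0% = vehicle wells and 100% = reference inhibitor control wells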
Target sequence (P9WHJ3 whole entry, looked up): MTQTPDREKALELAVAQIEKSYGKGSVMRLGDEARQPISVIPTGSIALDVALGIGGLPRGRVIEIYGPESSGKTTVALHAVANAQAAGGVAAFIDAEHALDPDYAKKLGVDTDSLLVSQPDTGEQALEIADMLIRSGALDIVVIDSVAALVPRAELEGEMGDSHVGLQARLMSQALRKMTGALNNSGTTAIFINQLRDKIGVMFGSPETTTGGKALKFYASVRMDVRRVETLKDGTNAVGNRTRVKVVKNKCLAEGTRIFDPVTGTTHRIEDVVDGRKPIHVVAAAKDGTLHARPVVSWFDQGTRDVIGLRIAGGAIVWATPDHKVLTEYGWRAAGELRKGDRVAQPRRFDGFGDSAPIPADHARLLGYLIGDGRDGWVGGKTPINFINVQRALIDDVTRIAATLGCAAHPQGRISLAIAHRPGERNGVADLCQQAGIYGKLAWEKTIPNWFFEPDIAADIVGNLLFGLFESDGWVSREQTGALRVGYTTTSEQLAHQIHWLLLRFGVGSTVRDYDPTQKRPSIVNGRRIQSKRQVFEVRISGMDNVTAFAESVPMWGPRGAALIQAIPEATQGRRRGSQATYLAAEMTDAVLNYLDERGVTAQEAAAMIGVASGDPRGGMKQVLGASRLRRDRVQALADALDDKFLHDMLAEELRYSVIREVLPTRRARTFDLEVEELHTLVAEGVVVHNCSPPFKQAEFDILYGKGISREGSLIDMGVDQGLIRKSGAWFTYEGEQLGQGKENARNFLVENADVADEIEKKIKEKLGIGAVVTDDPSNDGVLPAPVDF
YopH inh: YopH (Yersinia) phosphatase inhibition; fluorescence Ex485/Em525; AID 898; hit rate 0.16% among 140,000; inhibition, %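 (about 10 µM by stock and volumes)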;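 active means inhibition of 50% or more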;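 further: controls were vehicle for no effect and minimum signal wells for full effect; inactives centre near -20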
Arbovirus anti repeat: second read-out of Arbovirus anti, no call of its own (marks repeat the call); inhibition, %; measured here: 10K subset replicate screen; many hits read low in the repeat;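 first of two repeat runs on a subset; 0% = infected and 100% = uninfected wells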
Active calls of the source: *. This is a subset; count on the stated rates, not on these rows.

COc1cc(C2N(c3ccccn3)C(=O)C3CCCN32)cc(OC)c1OC (configuration not stated) was read as Arbovirus anti 7, Mtb growth -9%, Mtb betalactam -2, RecA intein inh -0.6 and YopH inh -32.
For Cc1c(CC(=O)O)c(=O)oc2cc(OCc3ccc(Cl)cc3)ccc12 the results were Mtb betalactam -3 and RecA intein inh 3.0.
For CCOC(=O)CSc1nnc(NC(=O)c2cccc([N+](=O)[O-])c2C)s1 the results were Arbovirus anti 2, Mtb growth 55%, Mtb betalactam 1, RecA intein inh 0.5 and YopH inh -7.
`COCC(=O)O[C@]1(CCN(C)CCCc2nc3ccccc3[nH]2)CCc2cc(F)ccc2[C@@H]1C(C)C` gave Mtb growth 17%, Mtb betalactam 76 and RecA intein inh 4.6.
For O=C(COc1ccccc1Cl)Nc1ccc2c(c1)C(=O)NC2=O the results were Mtb betalactam -2 and RecA intein inh 1.0.
For CCOC(=O)c1nc2cc3n(c(C)c-2c1C)C(C)C(CC)=C3C (configuration not stated) the results were Mtb growth -11%, Mtb betalactam -6, RecA intein inh -6.7 and YopH inh -5.
COc1ccc(CNC(=O)C2CCCN2C)cc1OC (configuration not stated) was read as Mtb growth -3%, Mtb betalactam -4 and RecA intein inh -0.7.
For Cc1ccc(CNC(=O)CCCCCNc2nc(=S)[nH]c3ccccc23)cc1 the results were Arbovirus anti 2, Mtb growth -2%, Mtb betalactam -5 and RecA intein inh -0.4.
For Cc1nn(CC(=O)Nc2ccc3c(c2)nc2n3CCN(C3CCCCC3)C2)c(=O)c2ccccc12 the results were Arbovirus anti 3, Mtb growth -1%, Mtb betalactam 0 and RecA intein inh 1.5.
COc1ccc2c(c1OC)C(=O)N(c1ccccn1)C2 was read as Arbovirus anti 1, Mtb growth -1%, Mtb betalactam 4, RecA intein inh 1.3 and YopH inh -30.
`O=C(CCc1ccccc1)NNC(=O)c1ccc(Br)cc1` gave Arbovirus anti -3, Mtb betalactam 1 and RecA intein inh 1.1.
`CN(C(=O)CSc1nc(-c2ccccc2)cn1N)C(c1ccccc1)c1ccccc1` gave Arbovirus anti -21, Mtb growth 6%, Mtb betalactam -5, RecA intein inh 7.6 and YopH inh 0.
`CCN(CC)c1ccc(C(=O)N2CCN(Cc3ccccc3)CC2)cc1` gave Arbovirus anti -17, Mtb growth 3%, Mtb betalactam 1, RecA intein inh 0.4 and YopH inh 2.
Screening COc1cccc(CNC(=S)Nc2cc(C)cc(C)c2)c1 returned Arbovirus anti 0, Mtb growth 7%, Mtb betalactam -2 and RecA intein inh 4.8.
O=C(Nc1ccc(OC(F)F)c(Cl)c1)c1ccccn1 was read as Arbovirus anti 13, Mtb growth 33%, Mtb betalactam 0 and RecA intein inh 1.0.
Screening C[C@H](NC(=O)c1nc[nH]c1C(=O)NCC(=O)OC(C)(C)C)c1ccccc1 returned Mtb betalactam 12 and RecA intein inh 0.1.
For C=CCNc1nc(C2(C)CC3(CC(C)OC3=O)C(=O)O2)cs1 (configuration not stated) the results were Arbovirus anti -3, Mtb growth -11%, Mtb betalactam 5, RecA intein inh -0.2 and YopH inh -35.
CN(C)CCCN(Cc1ccccc1)C(=S)NCc1ccccc1 was read as Arbovirus anti -7, Mtb growth 2%, Mtb betalactam 0 and RecA intein inh -4.6.
For CN(C)c1ccc(O)c2c1CC1CC3C(N(C)C)C(=O)C(C(N)=O)=C(O)[C@@]3(O)C(=O)C1=C2O (some centres not stated) the results were Mtb growth 3.3µM*, Mtb betalactam 100 and RecA intein inh 0.0.
For O=C1C(Cl)=C(N2CCOCC2)C(=O)N1c1ccc(Br)cc1 the results were Mtb betalactam 73 and RecA intein inh 53*.
`COC(=O)C1=CN(C(C)c2ccccc2)C=C(C(=O)OC)C1c1cc(OC)c(OC)c(OC)c1` (configuration not stated) gave Mtb betalactam 17 and RecA intein inh -94.
For OC(COc1c(F)cc(Br)cc1F)CN1CCc2ccccc2C1 (configuration not stated) the results were Mtb betalactam 5 and RecA intein inh -1.0.
For O=C(CSc1nnc(-c2ccccc2)o1)c1nnc(-c2ccccc2)o1 the results were Arbovirus anti -13, Mtb growth -7%, Mtb betalactam 24, RecA intein inh 11 and YopH inh -40.
COc1cc(Nc2c3c(nc4ccccc24)CCC3)cc(OC)c1OC was read as Mtb betalactam 0 and RecA intein inh 0.7.
`COC(=O)C1=C(c2ccccc2)C[C@@H]2CC[C@H]1N2C(=O)NCc1ccc(F)cc1` gave Mtb growth 1%, Mtb betalactam -3 and RecA intein inh 0.9.
For COC(=O)c1cccc(NC(=O)CN2CCN(Cc3ccccc3)CC2)c1 the results were Arbovirus anti -1, Mtb growth -3%, Mtb betalactam -18, RecA intein inh 2.2 and YopH inh -14.
`N=c1c(C(=O)NC2CCCC2)cc2c(=O)n3ccccc3nc2n1Cc1ccccc1` gave Mtb betalactam -3 and RecA intein inh -463.
NC(=O)CS(=O)(=O)c1nc2ccccc2n1Cc1ccccc1F was read as Arbovirus anti 9, Mtb growth 0%, Mtb betalactam -2, RecA intein inh 2.5 and YopH inh 27.
`O=C(CN(C1CCCCC1)S(=O)(=O)c1ccc(F)cc1)NC1CC1` gave Arbovirus anti 4, Mtb growth -5%, Mtb betalactam 6, RecA intein inh -2.5 and YopH inh -46.
COc1ccc(C(=O)c2cn[nH]c2-c2cc(C)ccc2O)cc1 was read as Mtb betalactam -7 and RecA intein inh 2.9.
CC1(C)CC(CC(=O)O)C(=O)O1 (configuration not stated) was read as Arbovirus anti 8, Mtb growth -5%, Mtb betalactam 1, RecA intein inh -4.2 and YopH inh -6.
CCc1ccccc1Nc1nc2ccccc2n1C was read as Arbovirus anti 8, Mtb growth 3%, Mtb betalactam 5 and RecA intein inh 0.5.
Screening Nc1nc(NCCCN2CCOCC2)nc(NCc2ccccc2)c1[N+](=O)[O-] returned Mtb growth -7%, Mtb betalactam 11 and RecA intein inh -5.4.
O=C(O)CSCC(=O)Nc1ccc(C2CCCCC2)cc1 was read as Arbovirus anti 1, Mtb growth -6%, Mtb betalactam 4, RecA intein inh 1.1 and YopH inh -19.
Screening COc1ccc(O)c(CN2CCCC(N3CCN(c4ccccc4OC)CC3)C2)c1 (configuration not stated) returned Mtb betalactam -4 and RecA intein inh -4.8.
For Cc1sc2nc(C3CC3)nc(NCCNS(C)(=O)=O)c2c1C the results were Arbovirus anti -3, Mtb growth -5%, Mtb betalactam -2, RecA intein inh -0.1 and YopH inh -40.
O=C(NS(=O)(=O)c1ccccc1[N+](=O)[O-])c1ccccc1 was read as Mtb betalactam -3 and RecA intein inh 3.5.
For N#CCSc1n[nH]c2nc3c(c(=O)n12)C1(CCCCC1)Cc1ccccc1-3 the results were Mtb growth 78%, Mtb betalactam 2 and RecA intein inh 5.1.
Screening CCOc1ccc(N2C(=O)C3ON(C)C(c4ccc([N+](=O)[O-])cc4)C3C2=O)cc1 (configuration not stated) returned Mtb growth -12%, Mtb betalactam -7 and RecA intein inh -0.6.
O=C1C2C3C=CC([C@@H]2C(=O)N1C1CCCCC1)[C@H]1C(=O)N(C2CCCCC2)C(=O)C31 (some centres not stated) was read as Arbovirus anti -2, Mtb growth -3%, Mtb betalactam -7, RecA intein inh 2.0 and YopH inh -39.
`CCOP(=O)(OCC)c1nc(-c2ccc(Cl)cc2)oc1NCc1ccccc1` gave Arbovirus anti 4, Mtb growth 7%, Mtb betalactam -2 and RecA intein inh 0.4.
For Cc1[nH]c2ccc(C(=O)N3CCN(c4ccccn4)CC3)cc2c1C the results were Mtb betalactam 1 and RecA intein inh 0.5.
For O=C(Nc1cccc(NC(=O)c2ccccc2Cl)c1)c1ccc(F)cc1 the results were Mtb betalactam 4 and RecA intein inh 4.1.
`CC(C)(C)[C@@H]1C=C(C(=O)Nc2ccccc2)O[C@H](OCc2ccc(CO)cc2)C1` gave Arbovirus anti 21, Mtb growth 7% and RecA intein inh 4.5.
NS(=O)(=O)c1ccc(CNC(=O)NC23CC4CC(CC(C4)C2)C3)cc1 was read as Arbovirus anti 4, Mtb growth -8%, Mtb betalactam 6, RecA intein inh 1.9 and YopH inh 0.
c1ccc(N2CCCCC2)c(NC2=NCCC2)c1 was read as Arbovirus anti 3, Mtb growth -15%, Mtb betalactam -6, RecA intein inh 2.7 and YopH inh 0.
O=C1Nc2ccc(Cl)cc2C(=O)C1(F)c1ccccc1 (configuration not stated) was read as Mtb growth -5%, Mtb betalactam 1 and RecA intein inh 0.1.
`Cn1c(C(=O)N2CCCC(C(=O)N3CCN(C(=O)c4ccco4)CC3)C2)cc2sccc21` (configuration not stated) gave Arbovirus anti 1, Mtb growth 4%, Mtb betalactam -6 and YopH inh -2.
For Cc1ccc(NC(=O)COC(=O)CCc2nc3ccccc3c(=O)[nH]2)c(Br)c1 the results were Arbovirus anti -5, Mtb growth -2%, Mtb betalactam 18 and RecA intein inh -0.8.
Screening COCc1nnc(NC(=O)c2ccc(S(=O)(=O)N3CCCc4ccccc43)cc2)o1 returned Arbovirus anti -11, Mtb growth -7%, Mtb betalactam 6 and RecA intein inh 0.1.
`O=C(Nc1ccc(Cl)c([N+](=O)[O-])c1)Nc1nc2ccccc2s1` gave Mtb betalactam 1 and RecA intein inh 7.9.
For CCOC(=O)c1c(C)c(C(=O)NC(C)COC)c(C)n1CC (configuration not stated) the results were Arbovirus anti 6, Mtb growth -6%, Mtb betalactam -9, RecA intein inh 1.3 and YopH inh -42.
COc1ccc(NC(=S)NCCC(c2ccccc2)c2ccccc2)c(OC)c1 was read as Arbovirus anti 1, Mtb growth -7%, Mtb betalactam -6, RecA intein inh 9.6 and YopH inh -32.
O=C(CNC(=O)OCc1ccccc1)NCC(=O)N1CCCC1C(=O)OCc1ccccc1 (configuration not stated) was read as Arbovirus anti 3, Mtb growth -11%, Mtb betalactam -16, RecA intein inh -0.9 and YopH inh -7.
`O=C(NCC1CCCO1)c1cccc(Oc2c(Cl)cccc2[N+](=O)[O-])c1` (configuration not stated) gave Mtb betalactam -10 and RecA intein inh 0.4.
For Cc1ccoc1C(=O)NCc1occc1C(=O)O the results were Arbovirus anti 2, Mtb growth -1%, Mtb betalactam -20, RecA intein inh 2.0, YopH inh -12 and Arbovirus anti repeat 0.
CCN(CCN1CCCC1)C(=O)c1cc(COc2ccccc2SC)on1 was read as Mtb betalactam -3 and RecA intein inh 0.6.
`CC(C)c1ccc(NC(=O)c2cccc(Br)c2)cc1` gave Arbovirus anti 3, Mtb growth 6%, Mtb betalactam 10 and RecA intein inh -0.7.
CCCS(=O)(=O)N1CCCC(C(=O)NCCN(CC)CC)C1 (configuration not stated) was read as Arbovirus anti 10, Mtb growth -9%, Mtb betalactam -4, RecA intein inh 0.2 and YopH inh -36.
For CC(OC(=O)c1cccnc1)C(=O)NCc1ccc2c(c1)OCO2 (configuration not stated) the results were Arbovirus anti 3, Mtb growth 4%, Mtb betalactam 3, RecA intein inh 1.1 and YopH inh -11.
Cc1nc(C(C)N(C)Cc2c(C(=O)N3CCCCC3)nc3c(C)cccn23)c(C)s1 (configuration not stated) was read as Arbovirus anti 8, Mtb growth -4%, Mtb betalactam -3 and RecA intein inh 1.4.
For COc1ccc(C)cc1NCc1cc(=O)oc2cc(-c3ccccc3)c(O)cc12 the results were Arbovirus anti 12, Mtb growth 12%, Mtb betalactam -3, RecA intein inh -1.7 and YopH inh 9.
For Cc1nn(Cc2ccc(Cl)cc2)c(C)c1NC(=O)c1noc2c1CCc1ccccc1-2 the results were Arbovirus anti -9, Mtb growth -2%, Mtb betalactam -4, RecA intein inh 2.5 and YopH inh -32.

In the list so far, 8 have fluorine:
`COCC(=O)O[C@]1(CCN(C)CCCc2nc3ccccc3[nH]2)CCc2cc(F)ccc2[C@@H]1C(C)C` gave Mtb growth 17%, Mtb betalactam 76 and RecA intein inh 4.6.
O=C(Nc1ccc(OC(F)F)c(Cl)c1)c1ccccn1 was read as Arbovirus anti 13, Mtb growth 33%, Mtb betalactam 0 and RecA intein inh 1.0.
For OC(COc1c(F)cc(Br)cc1F)CN1CCc2ccccc2C1 (configuration not stated) the results were Mtb betalactam 5 and RecA intein inh -1.0.
`COC(=O)C1=C(c2ccccc2)C[C@@H]2CC[C@H]1N2C(=O)NCc1ccc(F)cc1` gave Mtb growth 1%, Mtb betalactam -3 and RecA intein inh 0.9.
NC(=O)CS(=O)(=O)c1nc2ccccc2n1Cc1ccccc1F was read as Arbovirus anti 9, Mtb growth 0%, Mtb betalactam -2, RecA intein inh 2.5 and YopH inh 27.
`O=C(CN(C1CCCCC1)S(=O)(=O)c1ccc(F)cc1)NC1CC1` gave Arbovirus anti 4, Mtb growth -5%, Mtb betalactam 6, RecA intein inh -2.5 and YopH inh -46.
For O=C(Nc1cccc(NC(=O)c2ccccc2Cl)c1)c1ccc(F)cc1 the results were Mtb betalactam 4 and RecA intein inh 4.1.
O=C1Nc2ccc(Cl)cc2C(=O)C1(F)c1ccccc1 (configuration not stated) was read as Mtb growth -5%, Mtb betalactam 1 and RecA intein inh 0.1.
